Source: PubChem (several laboratories)
Mtb hypoxia rep = PubChem AID 1159583; fluorescence inhibition, % (concentration not given with the values); 0.1% of 300,000 active; M. tuberculosis hypoxia-regulated fluorescent reporter, fluorescence;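 active means 35 to 45% if threefold the growth effect, above 45% if 1.5-fold the growth effect; inactive means the rest, general growth blockers included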;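 further: wells of about 50 µL received 100 nL stock; 0% = vehicle wells and 100% = reference inhibitor wells; whole bacteria with a GFP reporter of the hypoxia response; strong numbers were not always called active; many hits fall short of the cut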
Sa RN4220 lethal = growth inhibition of S. aureus RN4220, primary screen, OD600; 16 h; 0.33% of 330,000 active; inhibition, % (test concentration not listed); AID 1259311, 2017;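 active means z-score of -3 or lower and OD600 up to 0.18 on both plates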;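 further: plate controls were untreated cells for no effect and reference antibiotic for full effect; stock transfer was 100 nL into about 80 µL; one replicate is shown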
Autofluor counter = flagged as autofluorescent in microsphere protease counterscreen. compound autofluorescence counterscreen, microsphere flow cytometry; hits give high values. fluorescence intensity (concentration not given with the values). 3.1% of 360,000 active. AID 624483;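 active means at least 3 SD above the mean of all compounds, about 16000 in these data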;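 further: 100 nL of 1 mM stock went into each well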
Sa ugtP lethal = growth inhibition of ugtP-null S. aureus, primary screen, RN4220 ugtP deletion, OD600. growth inhibition, % (concentration not given with the values). 0.54% of 330,000 active. 16 h; some inactives read as strong as hits;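 active means z-score under -3 and OD600 up to 0.15 on both plates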;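 further: plate controls were untreated wells for no effect and antibiotic for full effect; wells of about 80 µL received 100 nL stock; the first replicate is given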
BJeLR viability = MLPCN primary cell-based screen for lethality selective to Ras in HRASV12 cells; BJeLR (HRASV12) viability, CellTiter-Glo ATP luminescence, 48 h; reference of the scale not given here; inhibition, % (no concentration beside the values); AID 1554, 2009; 0.17% of 300,000 active;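 active means replicate mean above 50%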;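 further: 50 nL library stock added to about 25 µL; numbers are from one replicate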
PrP UTR inh = inhibition of PrP 5' UTR reporter expression; inhibition, % (no concentration beside the values); AID 488862, 2010; cell-based PrP 5' UTR mRNA reporter, plate reader; 0.35% of 340,000 active;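 active means every replicate at 50% or more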;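 further: 0 = median of the neutral control wells; tested in H4 reporter cells; numbers are from one replicate; inactives centre near -14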
Mtb hypoxia rep growth = also measured in Mtb hypoxia rep; calls as there; growth inhibition, %; measured here: M. tuberculosis growth (absorbance);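 0% = vehicle and 100% = reference antibiotic; read after six days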
* marks the source's active call; other numbers are inactive results; / = not tested or not shown.

SMILES	Mtb hypoxia rep	Mtb hypoxia rep growth	Sa RN4220 lethal	Autofluor counter	Sa ugtP lethal	BJeLR viability	PrP UTR inh
Cc1ccc(NC(=O)CSc2ccc(C(N)=O)cc2[N+](=O)[O-])cc1	-2	8	4.5	2058	3	4	-31
CC(=O)C(Sc1nccc(-c2cccs2)n1)C(C)=O	8	9	2.8	4045	15	7	-25
Nc1c(C(=O)NCCc2ccccc2)nnn1Cc1ccccc1	12	7	7.7	4494	11	6	-56
N/C(Cc1cccc2ccccc12)=N\OC(=O)Cc1cccs1	/	/	/	2386	/	6	-10
O=C(NC1CCCCC1)C(c1ccc(F)cc1)N(Cc1ccco1)C(=O)CN1C(=O)c2ccccc2S1(=O)=O (stereo unspecified)	3	8	2.4	2762	7	2	-39
O=C(O)c1ccccc1NS(=O)(=O)c1ccc(NN=Cc2ccc(F)cc2)c([N+](=O)[O-])c1	4	7	-4.2	4296	82	/	-11
Cc1ccc(NC(=O)C(C)Sc2nnc(-c3cccnc3)n2-c2ccccc2)cc1 (stereo unspecified)	-2	12	7.2	10958	9	3	-22
CCC1=Nc2ccccc2-c2nnc(SC)nc2O1	/	/	1.8	4512	1	3	-21
C#CC[N+]1(C)[C@@H]2CC[C@H]1CC(OC(=O)C(CO)c1ccccc1)C2 (stereo partly specified)	7	3	3.9	3589	8	-6	/
O=C(Nc1ccnn1C1CCN(C2CCCCC2)CC1)c1ccccc1	/	/	/	8385	/	-5	-21

Single entries from the entries so far:
For Sa RN4220 lethal, Cc1ccc(NC(=O)CSc2ccc(C(N)=O)cc2[N+](=O)[O-])cc1 has 4.5
For Autofluor counter, O=C(Nc1ccnn1C1CCN(C2CCCCC2)CC1)c1ccccc1 has 8385
For BJeLR viability, CCC1=Nc2ccccc2-c2nnc(SC)nc2O1 has 3

Next section
SMILES	Mtb hypoxia rep	Mtb hypoxia rep growth	Sa RN4220 lethal	Autofluor counter	Sa ugtP lethal	BJeLR viability	PrP UTR inh
CC1CN(C(=O)CCc2cc(C(C)(C)C)c(O)c(C(C)(C)C)c2)CC(C)O1 (stereo unspecified)	6	-3	5.5	5053	-8	3	-11
COc1ccc(CNC(=O)C(c2ccc(C)o2)N(Cc2cccs2)C(=O)Cc2cccs2)cc1 (stereo unspecified)	/	/	-6.5	3311	5	-4	5
COC(=O)c1cn(C(=O)c2ccc(Cl)cc2)c2ccccc12	7	8	0.7	5229	-4	1	-35
CCOc1ccc(-c2nnc3n2N=C(c2ccc(OC)cc2)CS3)cc1	8	0	4.4	19797*	-7	5	-22
Cc1ccc2[nH]c(=O)c(CN(Cc3cccnc3)C(=S)NCCCN(C)C)cc2c1	-3	3	6.6	4410	6	4	23
CC(=O)c1ccc(C(=O)NC2CC(C)(C)Cc3c2cnn3-c2ccccc2)cc1 (stereo unspecified)	-11	0	-5.2	5906	1	6	-16
CCCC(C)=NNc1nc2c(c(=O)n(C)c(=O)n2C)n1C	6	1	5.7	/	1	/	/
Cc1ccc(C)c(-n2c(-c3csc(C)c3)n[nH]c2=S)c1	12	1	1.5	13477	18	/	-19
CC(=NNC(=O)c1ccc2c(c1)OCO2)c1ccc(O)cc1	7	14	0.4	/	7	/	/
O=C(Nc1ccc(-c2cn3ccsc3n2)cc1)c1ccc(F)c(S(=O)(=O)N2CCOCC2)c1	-1	6	2.6	19935*	4	1	-8
Cc1onc(-c2c(F)cccc2Cl)c1C(=O)Nc1nc2c(s1)CCCC2	-10	1	-0.6	15295	-3	3	8
Cc1ccc(C)c2[nH]c(=O)c(CCNC(=O)c3ccc(S(=O)(=O)N4CCCC4)cc3)cc12	5	6	0.0	6296	1	-3	-59
CC1(C)CC(=O)C(C(O)c2ccccc2)C(C)(C)N1 (stereo unspecified)	10	13	-0.4	3789	0	-3	-29
CCOc1ccc(CNC(=O)C2CC(=O)N(C3CCCC3)C2)cc1OC (stereo unspecified)	6	1	2.3	6160	5	-3	-26
CC1(C)CC2(CC(c3ccccc3F)c3ccc(O)c(O)c3O2)NC(=S)N1 (stereo unspecified)	-1	10	1.2	3951	0	9	-10
CC1(C(=O)NNC(=O)C2CCCCC2)CC1(Cl)Cl (stereo unspecified)	1	0	1.6	3370	7	4	-17
Cc1ccc(CN2CCN(/N=C/c3cc(Br)ccc3O)CC2)cc1	/	/	/	7986	/	-7	-6
COc1ccc2cc3cc(C(=O)NC(C)C)oc3nc2c1	4	3	0.4	3666	0	4	-93
Cc1nc2ccc(F)cc2cc1C(=O)NCC1CCCO1 (stereo unspecified)	3	6	-9.2	3445	-1	-4	-22
Cc1ccnc(NC(=O)Nc2cccc(F)c2)n1	4	1	-0.6	1986	0	0	-57
CC(C)(C)NS(=O)(=O)c1ccc(CCC(=O)NCc2ccco2)cc1	2	-1	3.0	6438	3	1	-5
COc1cc(=O)[nH]c(=O)n1C(=O)Cc1ccccc1	20	16	0.0	4704	12	6	-13
Cc1cc(Nc2nnnn2-c2ccccc2)n(-c2ccccc2)n1	4	5	1.2	8047	-9	6	-13
COc1ccc(/C=C2\SC(=O)NC2=S)cc1OC	16	4	71	8878	65	14	-18
CNC(=S)N1CCN(c2ccc([N+](=O)[O-])cc2)CC1	5	9	3.9	10283	-5	7	-29
CCC(=O)N(CC)C1=C(O)c2ccccc2C(=O)C1=O	0	-1	4.1	20676*	-7	1	-12
O=C(Cn1nnc(-c2ccccc2)n1)NCC(=O)Nc1ccc(F)c(F)c1F	3	-1	0.0	7860	-4	/	-14
CCC(CC)N1CCN(Cc2nc3ccc([N+](=O)[O-])cc3c(=O)n2-c2ccccc2F)CC1	15	7	1.5	3370	2	-1	-15
COC(=O)Nc1ccc2c(c1)N(C(=O)CCN(C)C)c1ccccc1CC2	1	-1	2.8	3234	14	0	-18
COC(=O)c1ccc(CNC(=O)COC(=O)Cc2ccsc2)cc1	12	6	-0.6	3800	8	4	-9
O=C(NCCc1ccccc1)c1ccccc1[N+](=O)[O-]	-1	5	5.3	3576	-1	-6	-30
COc1cc(N(Cc2ccccc2)Cc2ccccc2)c2ncn(C(C)C)c2c1	4	13	-3.0	3713	1	/	-14
CCOC(=O)N1CCC(NC(=O)c2cc3c(-c4cccc(OC)c4)nn(C)c3s2)CC1	/	/	-2.0	4572	-5	6	-15
c1cncc(CNc2ncnc3sc4c(c23)CCC4)c1	-6	16	-0.9	4602	-18	3	-18
COc1ccc(OC)c(-c2nnc(SCC(=O)N3CCCC3)o2)c1	19	0	2.4	5850	-3	-10	-14
COc1cc2cc(C(=O)NN=Cc3ccc(F)cc3)[nH]c2cc1OC	1	15	4.8	/	-16	/	/
Cc1ccc(CSCC(=O)Nc2c(C)n(C)n(-c3ccccc3)c2=O)cc1	-2	6	8.2	2024	8	2	-1
O=C(Nc1cccnc1)C1CCN(S(=O)(=O)c2cccc3nonc23)CC1	5	-1	-1.1	6913	-2	-5	-1
N#C/C(=C(/O)COC(=O)CSc1ccc2ccccc2c1)c1nc2ccccc2[nH]1	-4	9	4.3	2487	-13	-8	0
Cc1ccccc1OCC(=O)OCC(=O)Nc1cc(C(F)(F)F)ccc1N1CCOCC1	2	9	4.4	2163	-4	9	-18
COc1ccc(OC)c(NC(=O)Nc2ccc3c(c2)CCC3)c1	12	1	-3.0	6461	7	-3	-16
O=C(c1ccc(S(=O)(=O)N2CCCC2)cc1)N1CCCCCC1	8	2	1.7	4225	3	11	-14
Cc1ccc(NC(=O)COC(=O)CCC(=O)c2cccs2)c(C)c1	1	8	12	3169	5	3	-6
COc1ccc(/C=C/C(=O)NC(=S)N2CCSCC2)cc1	11	-4	4.5	4329	8	-1	-26
O=C(CCC(=O)c1ccc(F)cc1)Nc1cc(Cl)cc(Cl)c1	4	10	1.3	2381	2	-3	-15
Nc1ncc(CN2CCCC(C(=O)Nc3ccc(-c4ccco4)cc3)C2)cn1 (stereo unspecified)	9	7	2.1	7028	0	-3	0
COc1ccccc1NC(=O)c1sc2ncn(Cc3ccc(C)cc3)c(=O)c2c1C	2	5	-5.1	5812	2	6	-1
NC(=O)c1c(NC(=O)CN2C(=O)NC(Cc3ccccc3)C2=O)sc2c1CCC2 (stereo unspecified)	3	7	4.8	4098	4	-8	-13
O=C(CN1C(=O)C2C3C=CC(C3)C2C1=O)OCC(=O)c1ccccc1 (stereo unspecified)	7	4	2.4	7432	5	-3	-1
Cc1cc(=O)oc(C)c1C(=O)NCc1ccccc1	/	/	-1.7	4602	8	-2	-15

Arranged by number of heavy atoms (rising): 3 of the compounds above
SMILES	Mtb hypoxia rep	Mtb hypoxia rep growth	Sa RN4220 lethal	Autofluor counter	Sa ugtP lethal	BJeLR viability	PrP UTR inh
COc1ccc(/C=C/C(=O)NC(=S)N2CCSCC2)cc1	11	-4	4.5	4329	8	-1	-26
O=C(CCC(=O)c1ccc(F)cc1)Nc1cc(Cl)cc(Cl)c1	4	10	1.3	2381	2	-3	-15
COc1ccc(OC)c(NC(=O)Nc2ccc3c(c2)CCC3)c1	12	1	-3.0	6461	7	-3	-16

Other records follow:
SMILES	Mtb hypoxia rep	Mtb hypoxia rep growth	Sa RN4220 lethal	Autofluor counter	Sa ugtP lethal	BJeLR viability	PrP UTR inh
N#C/C(=C(/O)c1ccc(C(=O)c2ccccc2)cc1)c1nc2ccccc2[nH]1	-17	11	7.7	4804	9	3	-18
CCC(C)C1CNCCN1CCc1cc(C(F)(F)F)cc(C(F)(F)F)c1 (stereo unspecified)	14	11	3.7	/	-11	/	/
C=C1CCN([C@@H](CC(C)C)C(=O)N2CCOCC2)S(=O)(=O)c2ccccc21	/	/	/	3896	/	0	-8
CCCCCCC(=O)N(O)C1CC(=O)N(c2ccc(F)cc2)C1=O (stereo unspecified)	/	/	7.5	4197	2	-8	-29
O=C(NCCc1c[nH]c2ccccc12)C(=O)NCC1OCCN1S(=O)(=O)c1cc(F)ccc1F (stereo unspecified)	-6	-9	1.1	3562	-1	-11	-2
O=C(CSc1nc2ccccc2s1)c1ccc(O)cc1O	1	-3	4.3	3313	-4	-2	-50
Cn1c(=O)c2c(nc(CN3CCN(C(=O)c4ccco4)CC3)n2Cc2ccccc2)n(C)c1=O	/	/	-2.1	2228	-8	1	-1
CN(Cc1ccccc1)C(=O)C1CCN(S(=O)(=O)c2ccc3nc4c(c(C(=O)O)c3c2)CCCC4)CC1	2	-4	5.7	4677	0	13	-70
CCCCN(C(=O)C1=COCCO1)c1c(N)n(Cc2ccccc2)c(=O)[nH]c1=O	5	0	0.3	4559	6	-8	-2
C/C(=N\Nc1ccc([N+](=O)[O-])cc1)c1cc2ccccc2o1	/	/	/	4844	/	45	-40
O=C1c2ccccc2C(O)(c2ncc[nH]2)N1C1CCCCC1 (stereo unspecified)	4	6	5.8	2505	6	11	69*
COc1ccc(NC(=O)C2CCCN(C(=O)Nc3cccc(OC)c3)C2)cc1 (stereo unspecified)	6	3	-1.1	5564	-2	-3	-11
c1ccc2c(c1)nnn2CNc1nccs1	6	7	4.0	2523	2	-3	4
CCc1n[nH]c(=S)n1/N=C/c1ccccn1	/	/	/	3772	/	-22	-32
Nc1nc2c(ncn2-c2ccccc2)c(=O)[nH]1	8	2	1.3	3170	-1	/	12
Cc1cc(OC(C)C(=O)NCC(O)c2ccccc2)c2c3c(c(=O)oc2c1)CCC3 (stereo unspecified)	8	-2	3.5	4199	6	1	-9
Cc1cc(Cl)ccc1OCC(=O)NN=C1CCCc2ccccc21	4	-1	0.8	/	-11	/	/
CC(=NNC(=O)Cc1csc(N2CCOCC2)n1)c1ccc(Cl)c(Cl)c1	14	15	-0.2	/	3	/	/
Cc1ccc(O)c(NC(=O)Cc2ccc3ccccc3c2)c1	17	6	3.1	3978	-2	0	-30
O=C1c2ccccc2C(=O)N1CCC(=O)N1CCc2ccccc21	-1	6	14	22459*	12	/	-32
Cc1c(Cl)cccc1NC(=O)CSC(N)=O	-10	-9	40	4000	-3	5	28
CN(C)c1ccc(NC(=O)CN2C(=O)CN=C(c3ccccc3)c3cc(Cl)ccc32)cc1	1	-7	-2.8	4157	10	-6	-20
CC(C)N=C1CC(C)(C)CC(=O)/C1=C(/O)CCCN1C(=O)c2ccccc2C1=O	/	/	/	2464	/	-5	-7
Cc1cc(C)cc(N(C(=O)c2csnn2)C(C(=O)NC(C)(C)C)c2ccccn2)c1 (stereo unspecified)	13	6	0.1	3380	5	3	-7
O=C(Nc1ccc2c(c1)OCCO2)c1ccc(Br)c(S(=O)(=O)N2CCOCC2)c1	2	8	-12	2496	-6	/	3
